Screening results: PubChem, National Center for Advancing Translational Sciences (NCATS)
SARS PLpro yeast: blocks SARS-CoV papain-like protease in a yeast assay; S. cerevisiae expressing SARS-CoV PLpro, growth rescue; control for the full effect not named in the record; 330,000 compounds, 0.19% hits; Potency, µM (top dose mostly 32.9 µM), for the others: at the top dose activity, positive = growth rescue; active means well fitted rising curve with a large enough effect; inconclusive means small, poorly fitted or top-dose-only effect; inactive means no such curve, though single readings can be large or run the other way; further: 0% is about no effect; nearly all actives have a fitted effect of over 55% in size; growth read by luminescence after 48 h
RE007 growth inh: less growth of the S. pombe RE007 Vpr strain. 360,000 compounds, 0.21% hits. Potency, µM (series often up to 92.2 µM), without a hit: at the top dose activity change, negative = less growth. AID 651644. S. pombe RE007 Vpr strain, BacTiter-Glo ATP luminescence, 24 h; control for the full effect not named in the record; active = well fitted falling curve with a large enough effect; inconclusive = small, poorly fitted or top-dose-only effect; inactive = no such curve, though single readings can be large or run the other way;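 further: on the % scale 0 is the no-effect control and ±100 the full control effect; nearly all actives have a fitted effect of over 50% in size; the assay follows cell death caused by Vpr and the record does not say whether a fall means rescue or toxicity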
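Fission yeast RE007 carrying one integrated HIV-1 vpr copy, seeded at OD 0.01 in PMG+AL medium with 23 nL pinned compound. Grown 24 h at 30 degrees; viability read by BacTiter-Glo luminescence after 5 min.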
Cruzain inh noDet: cruzain (T. cruzi) inhibition without detergent; P25779; purified cruzain, Z-FR-AMC fluorescence, no detergent; Potency, µM, for inactives: max response, negative = inhibition, hits mostly inhibitors; 200,000 compounds, 2.3% hits;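 further: plate controls were enzyme without inhibitor for no effect and buffer without enzyme for full effect; nearly all actives have a fitted effect of over 40% in size; top concentration of the series not given in the record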
Target sequence (P25779 123-467 limits assumed): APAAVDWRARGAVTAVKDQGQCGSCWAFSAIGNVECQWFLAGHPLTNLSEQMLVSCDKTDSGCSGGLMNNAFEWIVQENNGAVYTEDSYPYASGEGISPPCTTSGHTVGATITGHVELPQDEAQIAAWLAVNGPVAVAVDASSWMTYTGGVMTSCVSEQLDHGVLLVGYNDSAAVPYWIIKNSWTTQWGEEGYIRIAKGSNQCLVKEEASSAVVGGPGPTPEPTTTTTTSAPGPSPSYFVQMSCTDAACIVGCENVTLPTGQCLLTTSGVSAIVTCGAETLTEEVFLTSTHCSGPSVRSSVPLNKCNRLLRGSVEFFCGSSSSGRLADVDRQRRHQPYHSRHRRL
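Purified cruzain at 1.5 nM, pre-incubated 15 min with compound at room temperature in 100 mM sodium acetate pH 5.5, 5 mM DTT, 0.00005% Triton X-100. Reaction started with 2 uM Z-FR-AMC; AMC fluorescence increase over 60 s gives rate.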
NS1 inh: blocks influenza NS1 protein function. Potency, µM (doses to about 46.1 µM), for inactives: at the top dose activity, positive = more growth. 270,000 compounds, 0.4% hits. S. cerevisiae slowed by influenza A NS1, growth recovery by OD600; active means well fitted rising curve with a large enough effect; inconclusive means small, poorly fitted or top-dose-only effect; inactive means no such curve, though single readings can be large or run the other way; further: nearly all actives have a fitted effect of over 50% in size
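Recovery from NS1-induced slow growth read by OD600 in budding yeast switched to galactose assay medium (pH 6.0, -URA) at 1:100 dilution. Compound 23 nl per well; the matching strain lacking NS1 serves as control.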
Cruzain Triton: blocks cruzain activity in presence of Triton detergent. P25779. purified cruzain, Z-FR-AMC fluorescence, 0.01% Triton. Potency, µM, without a hit: max response, negative = inhibition, actives largely listed as inhibitors. 200,000 compounds, 0.43% hits. AID 1478;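 further: plate controls were neutral wells for no effect and buffer without enzyme for full effect; nearly all actives have a fitted effect of over 40% in size; top concentration of the series not given in the record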
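Sodium acetate buffer (100 mM, pH 5.5) containing 5 mM DTT and 0.01% Triton X-100 hosted 1.5 nM cruzain and test compound for 15 min at room temperature. Cleavage of 2 uM Z-FR-AMC was then tracked by fluorescence.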
MARV entry inh: blocks Marburg virus binding to or entry into cells | Potency, µM (top dose mostly 37.8 µM), for inactives: at the highest dose activity change, negative = inhibition, most hits filed as inhibitors | AID 540276 | Marburg virus pseudotyped entry inhibition, cell reporter; control for the full effect not named in the record; about a third of the inactives were read at about 46 µM | 300,000 compounds, 1.8% hits; active = well fitted inhibition curve with a large enough effect; inconclusive = small, poorly fitted or top-dose-only effect, or effect the other way; inactive = flat fitted curve, though single readings scatter; tested in HEK293 cells; about a fifth of its hits are not listed in these tables; further: on the % scale 0 is the no-effect control and ±100 the full control effect; luciferase read-out
StopGo reporter: lowers the luciferase signal of an FMDV 2A StopGo reporter. human cells with a luciferase reporter of 2A StopGo recoding; control for the full effect not named in the record. Potency, µM (doses to about 57.9 µM), for the others: at the highest dose signal change, negative = less light. 410,000 compounds, 1.2% hits. AID 1159524; active = well fitted falling curve with a large enough effect; inconclusive = small, poorly fitted or top-dose-only effect; inactive = no such curve, though single readings can be large or run the other way; tested in HEK293T cells; further: on the % scale 0 is the no-effect control and ±100 the full control effect; nearly all actives have a fitted effect of over 45% in size; luciferase light after 4 h
LASV entry inh: inhibitors of Lassa virus binding or cell entry; Lassa virus pseudotype entry inhibition, cell reporter; control for the full effect not named in the record; Potency, µM (highest dose often 37.9 µM), for the others: top-dose activity change, negative = inhibition, actives largely listed as inhibitors; 300,000 compounds, 1.2% hits; AID 540256; active means well fitted inhibition curve with a large enough effect; inconclusive means small, poorly fitted or top-dose-only effect, or effect the other way; inactive means flat fitted curve, though single readings scatter; tested in HEK293 cells; further: on the % scale 0 is the no-effect control and ±100 the full control effect; nearly all actives have a fitted effect of over 50% in size; luciferase read-out
* = called active by the depositor; ? = inconclusive; nt = not tested or not shown; & = joins results of further samples; [ ] = dose if it differs, or a comment. Unless noted, the call rests on the fitted dose curve; in most records, active means well fitted curve in the direction sought with a large enough effect; inconclusive means small, poorly fitted or top-dose-only effect, or another doubt; inactive means no such curve, though single readings can be large; an effect the other way counts as inactive or inconclusive. Potency means the concentration at half of the fitted maximal effect.

no.	smiles	SARS PLpro yeast	RE007 growth inh	Cruzain inh noDet	NS1 inh	Cruzain Triton	MARV entry inh	StopGo reporter	LASV entry inh
1	CS(=O)(=O)Nc1ccccc1Oc1ccccc1	10%	-1%	-3%	?	-2.3%	-1%	-13%	0%
2	Cc1c(C(=O)Nc2ccc(-n3cnnn3)cc2)oc2ccccc12	-7%	10%	-1%	-9%	-1.1%	17%	nt	-20%
3	Cc1oc2ncnc(N3CCOCC3)c2c1C(=O)NCc1ccccc1	nt	nt	3%	nt	-2.2%	nt	-12%	1%[46.1 µM]
4	O=C(NCCC1=CCCCC1)C(=O)NCC1OCCCN1S(=O)(=O)c1ccccc1 (stereo not given)	-2%	0%	-7%	-7%	-5.8%	21%	-8%	7%
5	CCOc1cc(C2C3=C(CCCC3=O)N(C)C3=C2C(=O)CCC3)cc(Cl)c1O	-19%	16%	1%	-3%	-3.5%	12%&12%	19%	9%
6	COc1ccc(-c2[nH]nc3oc(=O)c(CCO)c(C)c23)cc1	-4%	0%	nt	nt	nt	5%[46.1 µM]	4%	-15%[46.1 µM]
7	S=c1[nH]ncn1/N=C/c1cccc(Oc2ccccc2)c1	-35%	-26%	-3%	-78%	-5.2%	5%[46.1 µM]	18%	12%
8	CC(C)NC(=O)c1cc2c(s1)CCCC2	-9%	-15%	-3%	-11%	6.7%	-11%	5%	?
9	COc1cccc(CNC(=O)Cn2c(=O)c3cccn3c3ccccc32)c1	3%	-15%	nt	12%	nt	nt	-11%	nt
10	CC(C)(C)N(NC(=O)c1ccccc1)C(=O)c1ccc(C(=O)N(NC(=O)c2ccccc2)C(C)(C)C)cc1	12%	-5%	-1%	2%	-1.7%	1%	-23%	26%
11	O=C(Cn1cc(SCc2c(F)cccc2Cl)c2ccccc21)N1CCCCC1	nt	nt	1%	nt	-0.3%	nt	21%	5%[46.1 µM]
12	COc1ccccc1CN1CC(C(=O)NCCSc2nnnn2C)CCC1=O (stereo not given)	-2%	3%	nt	10%	nt	26%	-3%	9%
13	O=S(=O)(Nc1ccc(-c2nc3cccnc3s2)cc1)c1ccccc1F	0%	5%	nt	8%	nt	?	49%[activator]	4%
14	Cc1cc(C)c2c(CC(=O)Nc3ccc(S(=O)(=O)N4CCCCC4)cc3)coc2c1	nt	nt	?	nt	-7.2%	?	-30%	?
15	Cc1ccc(C(=O)N2CCc3ccccc32)o1	-7%	?	6%	-11%	-3.5%	?	-17%	?
16	CC1CCN(CCCOc2ccc(OCc3ccccc3)cc2)CC1	-3%	-10%	-14%	-11%	5.5%	?	16%	10%
17	CCCCC1=CC2=C(c3ccco3)C(=O)C(C)(OC(=O)c3ccc(OC)cc3)C(=O)C2=CN1CCOC (stereo not given)	2%	-13%	nt	4%	nt	nt	-18%	nt
18	COc1ccc(-c2cc(C(F)(F)F)nc(-n3cc(Br)cn3)n2)cc1	-9%	-21%	?	-1%	?	-8%	-24%	15%
19	COc1ccc(NC(=O)C2=C(C)NC(=S)NC2c2ccc(O)c(OC)c2)cc1 (stereo not given)	4%	-4%	nt	7%	nt	?	-2%	-7%[46.1 µM]
20	CNC(=O)c1ccccc1NC(=O)c1c(O)c2c([nH]c1=O)CCCC2	5%	-10%	?	-15%	-0.9%	27%	45%[activator]	?
21	Cc1nc2c([N+](=O)[O-])c(C)c(C)cc2[nH]1	-4%	-16%	nt	nt	nt	11%[46.1 µM]	1%	3%
22	CCN(Cc1ccncc1)C(=O)c1cccs1	-7%	1%	-4%	15%	5.3%	2%	-7%	?
23	O=c1oc2c(CN3CCCCC3)c(O)ccc2c2c1CCCC2	-5%	-24%	?	6%	?	17%	nt	6%
24	C/C(Cl)=C\Cn1c(N2CCCC2)nc2c1c(=O)[nH]c(=O)n2C	7%	-5%	-2%	0%	0.8%	-23%	-13%	5%
25	CCC(C(=O)NCc1ccc(OC)c(OC)c1)n1nc(C)c2c(C)n(-c3ccc(C)cc3)nc2c1=O (stereo not given)	nt	nt	1%	nt	-1.1%	nt	?	?
26	CCCCN1C(=O)NC(=O)C2(Cc3c(nc4ccccn4c3=O)N3CCc4ccccc4C32)C1=O (stereo not given)	6%	-18%	19%	-53%	-4.3%	-25%&-25%	-23%	-4%
27	Cc1cc(C)c2c(c1)C1(OCCO1)C(=O)N2	1%	-13%	nt	4%	nt	20%	-12%	18%
28	Cc1ccc(C(=O)NNC(=S)Nc2cccc(Cl)c2Cl)cc1[N+](=O)[O-]	-3%	-2%	12%	2%	-2.6%	-2%	-6%	0%
29	CC1(C2CC2)NC(=O)N(CC(=O)N2CCN(c3cccc(C(F)(F)F)c3)CC2)C1=O (stereo not given)	7%	-12%	nt	nt	nt	-5%	35µM*	-13%
30	Cn1nc(C(=O)NCCOc2ccccc2)c2ccccc2c1=O	-4%	-3%	nt	nt	nt	2%[46.1 µM]	-23%	9%
31	O=C(CSc1nc(C2CCCCC2)n(-c2ccccc2)n1)NCCN1C(=O)CSC1=O	6%	-3%	23%	-20%	3.0%	-16%	2%	22%
32	O=C(CCc1ccccc1)NN1C(=O)C2C3C=CC(O3)C2C1=O (stereo not given)	1%	10%	nt	6%	nt	nt	-9%	nt
33	CCOc1ccc(CNC(=O)C2CCN(S(=O)(=O)c3cn(C)cn3)CC2)cc1OC	nt	nt	3%	nt	-2.6%	nt	-3%	3%[46.1 µM]
34	CCOC(=O)C1CCCN(c2ncnc3c2cnn3-c2cccc(C)c2)C1 (stereo not given)	-8%	12%	?	-78%	-1.6%	27%	?	-1%
35	Cc1cccc(N2CCN(S(=O)(=O)c3ccc4oc(=O)c5ncn(C)c5c4c3)CC2C)c1 (stereo not given)	nt	nt	-16%	nt	-1.8%	nt	-27%	-7%[46.1 µM]
36	CCOC(=O)c1ccc(-c2c(C)cc3oc(=O)cc(-c4ccccc4)c3c2C)cc1	2%	2%	4.5µM*	nt	2.8%	nt	?	nt
37	COC(=O)c1scc(-c2ccccc2)c1S(=O)(=O)Nc1ccc(C)c(Cl)c1	nt	nt	-23%	nt	-9.2%	nt	23%	-14%[46.1 µM]
38	COc1cccc(C(=O)NNC(=O)/C=C/c2ccccc2)c1	-2%	-7%	nt	-9%	nt	-2%[46.1 µM]	-8%	?
39	CCOc1ccc(/C=N/OCC(=O)NCc2cccs2)cc1	-11%	4%	7%	-4%	-3.2%	-2%	-14%	-21%
40	CC(C)(C)C(=O)CN1C(=O)NC2(CCOc3ccccc32)C1=O (stereo not given)	0%	-11%	nt	8%	nt	8%	-16%	-9%
41	CC(C)CNC(=S)NC(=O)c1ccc(Cl)cc1Cl	?	-30%	0%	-12%	-11%	-26%	12%	6%
42	O=C(O)c1oc2ccccc2c1CN1CCN(c2ccccc2)CC1	0%	14%	-2%	0%	-0.7%	-8%	-9%	0%
43	CCOC(=O)c1ccc(N2C(=O)c3[nH]nc(-c4ccc(OC)cc4)c3C2c2ccc(C)cc2)cc1 (stereo not given)	nt	nt	25µM*	nt	-2.4%	?	-15%	?
44	CCOc1ccc(C(=O)Cc2cc(OC)c(OC)cc2[N+](=O)[O-])cc1	-1%	-17%	3%	5%	3.0%	0%	nt	-31%
45	CCOc1ccccc1-n1c(SCC(N)=O)nnc1-c1ccco1	-3%	3%	-11%	1%	1.1%	-2%	21%	3%
46	COC(=O)c1ccccc1NC(=O)CSc1nc2ccccc2nc1Cc1ccccc1OC	nt	nt	12%	nt	0.0%	nt	-14%	19%[46.1 µM]
47	CCCCNS(=O)(=O)c1ccc2nc(-c3cccnc3)cc(C(=O)NC(C)CC)c2c1 (stereo not given)	3%	3%	21%	19%	-1.1%	-3%	80%[activator]	7%
48	Cc1c(OC(C)C(=O)NCCCN2CCOCC2)ccc2c3c(c(=O)oc12)CCCC3 (stereo not given)	-1%	-9%	nt	-10%	nt	nt	-21%	nt
49	CC1CC(C)CN(C(=O)CCNC(=O)Cn2cnc3ccccc3c2=O)C1 (stereo not given)	nt	4%	nt	12%	nt	-1%[46.1 µM]	27%	-23%
50	CCOC(=O)N1CCc2c(sc3c2C(=O)NC(c2cc(OC)c(O)c(OC)c2)N3)C1 (stereo not given)	nt	nt	-4%	nt	-12%	nt	-21%	-21%[46.1 µM]
51	COc1ccc(S(=O)(=O)N2CCCCCC2)cc1NC(=O)c1ccccc1S(C)(=O)=O	6%	0%	nt	nt	nt	-3%	7%	-20%
52	Cc1cccc(-n2nnc(-c3nc(-c4ccccc4)no3)c2N)c1C	nt	nt	-1%	nt	0.8%	nt	56%[activator]	?
53	COc1ccc(NC(=O)COC(=O)[C@@H](NC(=O)c2c(F)cccc2F)C(C)C)cc1	-2%	14%	nt	11%	nt	nt	13%	nt
54	O=C(Cc1ccc(Br)cc1)N(Cc1ccccc1)c1ccccn1	-1%	-19%	nt	-9%	nt	-22%[46.1 µM]	-18%	-30%
55	NS(=O)(=O)c1ccc(Nc2nc(-c3ccccc3)cs2)cc1	5%	22%	0%	3%	-17%	?	8%	-26%
56	Cc1cc(Sc2nc(NC(C)(C)C)nc(N3CCOCC3)n2)nc(Cl)n1	-17%	-9%	-2%	9%	-1.5%	36%	-17%	0%
57	Cc1ccc(CCNC(=O)CS(=O)Cc2nc(-c3ccccc3Cl)oc2C)cc1 (stereo not given)	1%	-19%	?	-3%	-7.1%	1%&1%[46.1 µM]	-23%&-23%	0%[46.1 µM]
58	COc1ccccc1CCc1nnc(CCC(=O)NC(C)Cc2cccnc2)o1 (stereo not given)	0%	3%	nt	-3%	nt	nt	4%	nt
59	CCc1cccc(NC(=O)c2cc3c(=O)[nH]c4ccccc4c3n2C)c1	nt	nt	7%	nt	-2.3%	5%[46.1 µM]	?	-15%[46.1 µM]
60	COc1ccc(CN(CCc2c[nH]c3ccccc23)Cc2ccc(OC)cc2)cc1	nt	-23%	nt	nt	nt	?	-8%	?
61	O=C(CSc1nnc(-c2ccc(Cl)cc2)o1)N1CCc2ccccc21	nt	nt	3%	nt	0.8%	25%[46.1 µM]	0%	5%[46.1 µM]
62	OC(CN1CCOCC1)(c1ccccc1)c1ccccn1 (stereo not given)	1%	6%	nt	2%	nt	?	0%	?
